# Screening results from PubChem.
# Mtb hypoxia rep: inhibitors of hypoxia-regulated fluorescent reporter in Mycobacterium tuberculosis | M. tuberculosis hypoxia-regulated fluorescent reporter, fluorescence | fluorescence inhibition, % (concentration not given with the values) | 0.1% of 300,000 active;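 active means 35 to 45% if threefold the growth effect, above 45% if 1.5-fold the growth effect; inactive means the rest, general growth blockers included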;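 further: wells of about 50 µL received 100 nL stock; 0% = vehicle wells and 100% = reference inhibitor wells; whole bacteria with a GFP reporter of the hypoxia response; strong numbers were not always called active; many hits fall short of the cut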
# PrP 5UTR inh: inhibition of PrP 5' UTR reporter expression | cell-based PrP 5' UTR mRNA reporter, plate reader | inhibition, % (concentration not given with the values) | 0.35% of 340,000 active | AID 488862;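 active means every replicate at 50% or more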;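 further: 0 = median of the neutral control wells; tested in H4 reporter cells; numbers are from one replicate; inactives centre near -14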
# Sa RN4220 lethal: kills Staphylococcus aureus RN4220 | 0.33% of 330,000 active | inhibition, % (no concentration beside the values) | S. aureus RN4220 growth, OD600, 16 h | AID 1259311;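 active means z-score of -3 or lower and OD600 up to 0.18 on both plates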;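 further: plate controls were untreated cells for no effect and reference antibiotic for full effect; stock transfer was 100 nL into about 80 µL; one replicate is shown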
# Bead autofluor: flagged as autofluorescent in microsphere protease counterscreen; compound autofluorescence counterscreen, microsphere flow cytometry; stronger effect = higher value; fluorescence intensity (no concentration beside the values); 3.1% of 360,000 active; AID 624483;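 active means at least 3 SD above the mean of all compounds, about 16000 in these data; inconclusive means too few beads counted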;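 further: 100 nL of 1 mM stock went into each well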
# BJeLR viability: BJeLR cell viability loss; BJeLR (HRASV12) viability, CellTiter-Glo ATP luminescence, 48 h; reference of the scale not given here; inhibition, % (concentration not given with the values); 0.17% of 300,000 active;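 active means replicate mean above 50%; inconclusive means above 50% but judged a plate artefact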;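 further: 50 nL library stock added to about 25 µL; numbers are from one replicate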
# ugtP null kill: kills S. aureus RN4220 lacking UgtP | 0.54% of 330,000 active | S. aureus RN4220 ugtP deletion, OD600 growth, 16 h; some inactives read as strong as hits | growth inhibition, % (test concentration not listed);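 active means z-score under -3 and OD600 up to 0.15 on both plates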;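 further: plate controls were untreated wells for no effect and antibiotic for full effect; wells of about 80 µL received 100 nL stock; the first replicate is given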
# Mtb hypoxia rep growth: second read-out of Mtb hypoxia rep, no call of its own (marks repeat the call); growth inhibition, %; measured here: M. tuberculosis growth (absorbance);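 0% = vehicle and 100% = reference antibiotic; read after six days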
# * = called active by the depositor; ? = inconclusive; . = not tested or not shown; & = joins results of further samples.
(1) CCc1ccc(OCC(O)CN2CCN(c3ccccc3)CC2)cc1 (configuration not stated)
(2) COc1cc(OC)c(OC)cc1NC(=O)CC1COc2ccccc2O1 (configuration not stated)
(3) CC(=O)c1cc(-c2ccccc2)n(CCC(=O)NC2CCCCCCC2)c1C
(4) O=C(Nc1cccc(Cl)c1)N1CCCC1
(5) CCC(C)C(NC(=O)NC(C)C)C(=O)O (configuration not stated)
(6) CC(C)(C)c1ccc(C(=O)N2CCN(CCNC(=O)C(=O)NCc3ccc(Cl)cc3)CC2)cc1
Assay by compound	1	2	3	4	5	6
Mtb hypoxia rep	2&4	-2	4	14	10	-11
Mtb hypoxia rep growth	8&6	5	4	7	8	3
Bead autofluor	3994&7302	6525	1998	3709	.	?
Sa RN4220 lethal	-0.1&2.6	4.1	4.4	6.5	4.7	1.0
BJeLR viability	1	1	-5	-1	.	-5
ugtP null kill	9&15	-1	-9	5	-5	-5
PrP 5UTR inh	-16&-7	-20	-10	-13	.	9

(7) CCCOc1ccc(C2=NNC(=O)CC2)cc1
(8) CC(C)(C)c1ccc(-c2cn(-c3ccc(Br)cc3)c3[n+]2CCCS3)cc1
(9) COC(=O)c1sc(NC(=S)NC(=O)c2cccc(Br)c2)nc1C
(10) COc1ccc(-c2nnc(NC(=O)c3ccco3)s2)cc1
(11) CNS(=O)(=O)c1cccc(C(=O)OCC(=O)NC2CCCC(C)C2C)c1 (configuration not stated)
(12) Cc1ccc(S(C)(=O)=NS(=O)(=O)c2cccc3nsnc23)cc1 (configuration not stated)
Assay by compound	7	8	9	10	11	12
Mtb hypoxia rep	5	24	0	5	14	8
Mtb hypoxia rep growth	-2	24	4	-4	9	1
Bead autofluor	2035	2308	3860	5529	4514	3672
Sa RN4220 lethal	6.1	74	5.4	1.2	8.1	0.5
BJeLR viability	-9	21	-8	-13	.	-5
ugtP null kill	1	69	4	-3	5	0
PrP 5UTR inh	18	-4	-32	-39	-7	-14

(13) Cc1cc(NC(=O)CCC(=O)N(Cc2ccco2)C2(C(=O)NC3CCCCC3)CCCCC2)no1
(14) Cn1c(=O)oc2cc(S(=O)(=O)NCCC(=O)NCCc3ccccc3)ccc21
(15) N#C/C(=C/c1ccc(OCc2ccc(C(=O)O)cc2)cc1)C(=O)Nc1ccccc1
(16) CC(C)CCC(CC(C)O)C(=O)NNC(=S)Nc1ccccc1 (configuration not stated)
(17) O=C(NN=Cc1cn[nH]c1-c1ccc(Cl)cc1)c1cccs1
(18) O=C1CC(c2ccc(S(=O)(=O)Nc3cc(C(F)(F)F)cc(C(F)(F)F)c3)cc2)CN1 (configuration not stated)
Assay by compound	13	14	15	16	17	18
Mtb hypoxia rep	2	0	8	5	2	4
Mtb hypoxia rep growth	-1	3	7	10	9	7
Bead autofluor	6320	20294*	3769	4486	.	11184
Sa RN4220 lethal	3.0	2.3	1.0	1.2	0.5	18
BJeLR viability	-10	8	1	-8	.	-15
ugtP null kill	5	3	-2	1	1	-2
PrP 5UTR inh	-20	-35	-22	-12	.	-21

(19) O=C(CN1C(=O)c2ccccc2S1(=O)=O)Nc1ccc(S(=O)(=O)Nc2ncccn2)cc1
(20) O=[N+]([O-])c1ccc(C2CN=C(Nc3ccccc3)S2)cc1 (configuration not stated)
(21) COCCn1c(SCc2ccc(F)cc2)nc2ccccc2c1=O
(22) O=C(c1cc(COc2c(F)cccc2F)on1)N1CCc2ccccc2C1
(23) Clc1cccc(-c2nc(NCCN3CCOCC3)c3ccccc3n2)c1
(24) c1csc(-n2nc3ccccc3n2)c1
Assay by compound	19	20	21	22	23	24
Mtb hypoxia rep	-1	14	7	-7	13	.
Mtb hypoxia rep growth	3	14	7	0	8	.
Bead autofluor	6439	4269	5863	4255	4649	4763
Sa RN4220 lethal	1.6	2.7	2.5	4.8	-7.4	7.3
BJeLR viability	-1	4	-5	-4	0	-4
ugtP null kill	4	4	9	12	-6	-7
PrP 5UTR inh	-14	-31	-11	-13	-26	-20

# Rewritten with two lines to a compound: part of the list above.
# Below each compound: Mtb hypoxia rep, Mtb hypoxia rep growth, Bead autofluor, Sa RN4220 lethal, BJeLR viability, ugtP null kill, PrP 5UTR inh
11	CNS(=O)(=O)c1cccc(C(=O)OCC(=O)NC2CCCC(C)C2C)c1 (configuration not stated)
  14, 9, 4514, 8.1, ., 5, -7
12	Cc1ccc(S(C)(=O)=NS(=O)(=O)c2cccc3nsnc23)cc1 (configuration not stated)
  8, 1, 3672, 0.5, -5, 0, -14
13	Cc1cc(NC(=O)CCC(=O)N(Cc2ccco2)C2(C(=O)NC3CCCCC3)CCCCC2)no1
  2, -1, 6320, 3.0, -10, 5, -20
14	Cn1c(=O)oc2cc(S(=O)(=O)NCCC(=O)NCCc3ccccc3)ccc21
  0, 3, 20294*, 2.3, 8, 3, -35
15	N#C/C(=C/c1ccc(OCc2ccc(C(=O)O)cc2)cc1)C(=O)Nc1ccccc1
  8, 7, 3769, 1.0, 1, -2, -22
16	CC(C)CCC(CC(C)O)C(=O)NNC(=S)Nc1ccccc1 (configuration not stated)
  5, 10, 4486, 1.2, -8, 1, -12
17	O=C(NN=Cc1cn[nH]c1-c1ccc(Cl)cc1)c1cccs1
  2, 9, ., 0.5, ., 1, .
18	O=C1CC(c2ccc(S(=O)(=O)Nc3cc(C(F)(F)F)cc(C(F)(F)F)c3)cc2)CN1 (configuration not stated)
  4, 7, 11184, 18, -15, -2, -21
19	O=C(CN1C(=O)c2ccccc2S1(=O)=O)Nc1ccc(S(=O)(=O)Nc2ncccn2)cc1
  -1, 3, 6439, 1.6, -1, 4, -14
20	O=[N+]([O-])c1ccc(C2CN=C(Nc3ccccc3)S2)cc1 (configuration not stated)
  14, 14, 4269, 2.7, 4, 4, -31
21	COCCn1c(SCc2ccc(F)cc2)nc2ccccc2c1=O
  7, 7, 5863, 2.5, -5, 9, -11
22	O=C(c1cc(COc2c(F)cccc2F)on1)N1CCc2ccccc2C1
  -7, 0, 4255, 4.8, -4, 12, -13
23	Clc1cccc(-c2nc(NCCN3CCOCC3)c3ccccc3n2)c1
  13, 8, 4649, -7.4, 0, -6, -26

# (list continues)
(25) C=CCc1cccc(/C=N/NC(=O)CNc2ccccc2OC)c1O
(26) Cc1cc(N=Cc2c(O)n(-c3cccc(C(F)(F)F)c3)c(=O)c3ccccc23)no1
(27) CCn1cc(/C=N\NC(=O)c2csc3ccccc23)c(C)n1
(28) CCOc1ccc(CC(=O)OCn2nnc3ccccc3c2=O)cc1
(29) CN(C)CCNC(=O)COc1cccc2c1OC(C)(C)C2
(30) CS(=O)(=O)NNC(=O)c1sccc1OCc1ncc(C(F)(F)F)cc1Cl
Assay by compound	25	26	27	28	29	30
Mtb hypoxia rep	.	9	.	-11	12	10
Mtb hypoxia rep growth	.	-3	.	4	6	-3
Bead autofluor	1988	1876	3806	3358	4058	5740
Sa RN4220 lethal	.	-5.8	.	-1.6	-0.7	6.4
BJeLR viability	-8	-4	6	5	7	7
ugtP null kill	.	5	.	6	0	5
PrP 5UTR inh	-1	-5	-23	6	-44	-5

(31) CN(C)c1nc(OCCNC(=O)Nc2ccc(Cl)cc2)nc(N(C)C)n1
(32) CC1CCCN(CCCNC(=O)c2nn(C)c3c2CS(=O)(=O)c2ccccc2-3)C1 (configuration not stated)
(33) CSc1nc(SCC(=O)NCc2ccco2)c2c3c(sc2n1)COC(C)(C)C3
(34) CN(C)CCNC(=O)C(=O)NCC1OCCN1S(=O)(=O)c1ccc2c(c1)OCCO2 (configuration not stated)
(35) O=C(c1cnn2c(-c3ccccc3)cc(-c3ccccc3)nc12)N1CCN(Cc2ccccc2)CC1
(36) O=C(Nc1cc(Cl)ccc1-n1cncn1)c1ccc(Br)o1
Assay by compound	31	32	33	34	35	36
Mtb hypoxia rep	10	-8	9	-5	7	0
Mtb hypoxia rep growth	10	8	13	-1	8	-2
Bead autofluor	4693	5489	10952	4470	4577	4252
Sa RN4220 lethal	8.4	-0.1	1.6	0.0	-0.7	6.8
BJeLR viability	-2	-9	3	2	18	3
ugtP null kill	4	1	3	-2	3	12
PrP 5UTR inh	-1	-2	-16	-22	-3	2
